From PubChem BioAssay
HIV TAR-Tat: TAR RNA-Tat peptide displacers, HIV-1, primary screen, biochemical, FRET, FAM/TAMRA-labeled Tat. hit rate 0.6% among 100,000. AID 1259389, 2018. z-score (no concentration beside the values). HIV-1 TAR RNA, Tat peptide displacement FRET; stronger effect = higher value;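 note: score is relative to mean and SD of negative controls; some compounds called inactive have numbers as strong as hits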
CDC25B-CDK2 inh: primary biochemical HTRF screen for blockers of M-phase inducer phosphatase 2 binding to CDK2/cyclin A; hit rate 0.72% among 94,000; HTRF CDC25B-CDK2/CyclinA binding, anti-His/anti-Flag; stronger effect = higher value; AID 1259370, 2018; z-score (concentration not given with the values);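 note: score is relative to mean and SD of negative controls; strong numbers were not always called active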
Active calls of the source: *; · = not tested or not shown.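 Rule for the calls: active = z-score from 3 up in half or more of its runs; inactive = the rest.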

Values run as follows: HIV TAR-Tat, CDC25B-CDK2 inh
1. COC(=O)C(C)Oc1ccc2c(=O)c(-c3ccc4c(c3)OCCO4)coc2c1 (stereo not drawn)
  ·, -1.7
2. CCOC(=O)C1CCN(C(=O)c2sc3ncn(CC(=O)N4CCCCC4C)c(=O)c3c2C)CC1 (stereo not drawn)
  1.6, ·
3. Cc1cc(-c2ccc(C)c(S(=O)(=O)N3CCN(Cc4ccc5c(c4)OCO5)CC3)c2)on1
  1.3, ·
4. CC(=O)Oc1cccc(-c2nc3ccc(Br)cc3c(=O)o2)c1
  ·, -0.6
5. FC(F)(F)Oc1ccc(OCc2n[nH]c(=S)n2-c2ccc(Cl)cc2)cc1
  ·, -0.06
6. C#CCn1c(C2CC(=O)N(Cc3ccc(F)cc3)C2)nc2ccccc21 (stereo not drawn)
  0.94, -0.87
7. O=C(NCCN1CCN(c2cccc(Cl)c2)CC1)Nc1ccc(Cl)cc1
  0.25, 3.4
8. Cc1ccc(OCCn2c(S(=O)(=O)O)nc3c(N)ncnc32)cc1
  ·, -0.59
9. CCOC(=O)C(=CNNC(=O)c1cccs1)C(=O)OCC
  ·, -3.8
10. Cc1ccccc1-c1nn2c(C(F)(F)F)nnc2s1
  -0.56, -0.57
11. Cc1csc2nc(CN3CCCc4ccccc43)cc(=O)n12
  -1.7, ·
12. CC(C)CSc1nc2cc3c(cc2c(=O)n1Cc1ccco1)OCO3
  ·, -1.1
13. COc1ccc(Nc2cc(Nc3ccc(OC)cc3)ncn2)cc1
  0.66, -1.1
14. CCCCCn1c(SCc2nc(-c3ccccc3)no2)nc2cc3c(cc2c1=O)OCO3
  1.2, ·
15. O=S(=O)(NCCc1ccc(Cl)cc1)c1ccc2nc(-c3ccccc3)[nH]c2c1
  ·, 1.5
16. Cc1ccc(NS(=O)(=O)c2cc(-c3cnc(C4CC4)o3)ccc2C)c(Br)c1
  -0.04, ·
17. CCOC(=O)C1CCCN(C(=O)c2cc3c(=O)n4cccc(C)c4nc3n2C)C1 (stereo not drawn)
  ·, -1.1
18. CN(CCNC(=O)Cn1ncc2c1-c1ccccc1OC2)C1CCCCC1
  1.2, -1.5
19. CCN(CCCNc1nnc2c3ccccc3n(C)c2n1)c1cccc(C)c1
  2.1, -1
20. CCOc1ccccc1C1Nc2c(C)cccc2-c2cc(C)nn21 (stereo not drawn)
  0.72, 0.98
21. CCSc1nnc(NC(=O)c2cc(S(=O)(=O)N3CCc4ccccc43)cn2C)s1
  -0.23, -0.84
22. O=C(CN1C(=O)CCc2cc(Br)ccc21)NC1CC1
  2.4, ·
23. CCOc1cccc2c1OC1(CCCCC1)N1N=C(c3cccs3)CC21 (stereo not drawn)
  ·, -1.4
24. COC(=O)c1cc(C)nc2c1c(=O)nc(SCC(=O)N(C)C1CCCCC1)n2C1CC1
  -0.84, ·
25. Cc1ccc(C)n1-c1sc2c(c1C(=O)NN)CCCC2
  ·, -0.7
26. O=C(c1ccccc1F)N1CCN(c2ccc3nnc(-c4ccccc4)n3n2)CC1
  0.7, -1.4
27. CC(C)OCCCNC(=O)C1c2c(n(C)c3ccccc23)SCC(=O)N1C1CC1 (stereo not drawn)
  1.2, ·
28. CCC1(C)Cc2ccccc2-c2[nH]c(=O)n(-c3ccccc3F)c(=O)c21 (stereo not drawn)
  -0.15, -1.9
29. O=C1c2[nH]nc(-c3ccccc3O)c2C(c2ccccc2)N1CCCO (stereo not drawn)
  0.05, -0.1
30. O=C(Nc1nnc(S(=O)(=O)N2CCCc3ccccc32)s1)c1cccs1
  0.13, 0.21
31. Cc1ncc(CO)c2cc(-c3nc(-c4ccccc4)no3)c(=O)oc12
  -1.6, -1.3
32. CCOC(=O)c1c(SC)[nH]c2c(C(F)(F)F)cccc2c1=O
  ·, -2.8
33. COc1cc(OC)cc(C(=O)N2CCN(S(=O)(=O)c3ccc(NC(C)=O)cc3)CC2)c1
  ·, -3.9
34. C=CCOC(=O)C1=C(C)Nc2[nH]c(=O)[nH]c(=O)c2C1c1ccc(O)cc1 (stereo not drawn)
  ·, -1.9
35. O=C(NCc1ccccc1Cl)c1ccc2oc(=O)n(Cc3ccccc3)c2c1
  1.4, ·
36. O=C(CC1(O)C(=O)N(Cc2ccc(Cl)cc2)c2ccccc21)c1ccc(Br)s1 (stereo not drawn)
  ·, -0.86
37. Cc1ccc(NC2SC(=O)N(c3ccccc3)C2=O)cc1 (stereo not drawn)
  ·, 0.32
38. CC1=C(C(=O)N2CCOCC2)C(c2ccc(Cl)cc2)C2=C(CC(C)(C)CC2=O)N1 (stereo not drawn)
  2.2, ·
39. COc1ccc(/C=C/c2nc(-c3ccc(OS(=O)(=O)N(C)C)cc3)no2)c(Cl)c1OC
  ·, -1.3
40. Cn1c(=O)c2c(SCC(=O)Nc3ccc(F)cc3)nc(CC(C)(C)C)nc2n(C)c1=O
  0.83, ·
41. Cc1c2c(c(O)c3c(O)cccc13)C(=O)OC2[C@@H]1C(N(C)C)C(O)=C(C(N)=O)C(=O)[C@H]1O (stereo partly drawn)
  31*, ·
42. Cc1nc(-c2nnc(-c3ccc(C(F)(F)F)cc3)o2)cs1
  ·, -1.5
43. CCOc1cc(C)nc(N2CCC(C(=O)O)CC2)n1
  1.5, -1.8
44. NC(=O)Cn1c(=O)n(CCCCC(=O)NCc2ccco2)c(=O)c2ccccc21
  -0.85, -0.87
45. CCCc1nc(SCC(N)=O)c2c(=O)n(C)c(=O)n(C)c2n1
  -0.26, ·
46. COc1cccc(-c2nnc3c4c5c(sc4ncn23)CCCC5)c1
  0.6, -2.5
47. Cc1cc(-c2ccc(C)c(S(=O)(=O)NCCSCc3ccco3)c2)on1
  0.12, ·
48. CNc1nsc(C(=O)c2ccc(C)cc2)c1N
  -0.47, -1.3
49. Cc1ccc(C2c3c(oc4ccc(F)cc4c3=O)C(=O)N2CCCN2CCOCC2)cc1 (stereo not drawn)
  0.32, 0.58
50. Cn1c(=O)c2c(nc(Sc3ccccc3N)n2C)n(C)c1=O
  -0.91, -1.4
51. CC1=NN(C2=NS(=O)(=O)c3ccccc32)C(C)(O)C1 (stereo not drawn)
  ·, -0.99
52. O=C(c1cc2c(s1)-c1ccccc1S(=O)(=O)C2)N1CCC(Cc2ccccc2)CC1
  0.72, -8
53. O=C(OCc1cc(=O)n2nc(-c3cccs3)sc2n1)c1cccc(Cl)c1
  -0.03, ·
54. Nc1nnc(-c2cc3ccccc3o2)o1
  0.12, -1
55. CC(C)Cn1c(=O)c2c(nc3n2CCN3c2ccc(F)cc2)n(C)c1=O
  2.8, ·
56. O=[N+]([O-])c1ccc(/C=N/OCc2cc(Cl)sc2Cl)cc1
  ·, -2.2
57. CC(C)(C)C1CCc2c(sc3nc(CCC(=O)N4CCN(C(=O)c5ccco5)CC4)[nH]c(=O)c23)C1 (stereo not drawn)
  -0.25, ·
58. COc1ccc(NS(=O)(=O)c2ccc3c(c2)S(=O)(=O)N=CN3)cc1
  0.24, ·
59. Cc1[nH][nH]c(=O)c1N=Nc1ccc(Br)cc1
  ·, -0.45
60. CSc1scc(Cl)c1S(=O)(=O)C(C)C
  ·, -0.42

Remaining list, next part.
Values run as follows: HIV TAR-Tat, CDC25B-CDK2 inh
61. CCn1c(NCc2cc(Cl)ccc2O)nc2ccccc21
  -1.2, -3.8
62. Cc1nnc(-c2ccc(S(=O)(=O)N3CCc4ccccc4C3)s2)o1
  1.4, ·
63. CC(=O)N1c2ccc(S(=O)(=O)N3CCCCC3)cc2CC1C(=O)N1CCCC1 (stereo not drawn)
  1.3, ·
64. CC1CCCCN1Cc1nc2c(c(=O)n(C)c(=O)n2C)n1CC(N)=O (stereo not drawn)
  1.3, -0.59
65. c1ccc2c(c1)nc(NCc1ccncc1)n2CCN1CCCCC1
  2.1, -1.7
66. COc1ccccc1CN(CCS(=O)(=O)N1CCNCC1)S(=O)(=O)c1ccc(F)cc1
  1.3, ·
67. Cn1c(=O)c(=O)n(C)c2cc(S(=O)(=O)N3CCCC3C(=O)NC3CCCCC3)ccc21 (stereo not drawn)
  1.4, -0.98
68. COCCCn1c(=O)cc(C)[nH]c1=S
  ·, -1
69. Cc1cccc(-c2nc3nc(C)cc(Nc4ccccc4F)n3n2)c1
  -0.23, -0.42
70. CC1Cc2ccccc2N1S(=O)(=O)c1ccc2c(c1)n(C)c(=O)c(=O)n2C (stereo not drawn)
  -1.4, -1.1
71. O=[N+]([O-])c1ccc(NCc2ccncc2)nc1
  ·, -2.6
72. NC(=O)CN1C(=O)C(O)(CC(=O)c2cccnc2)c2ccccc21 (stereo not drawn)
  1.4, 0.65
73. CC(C)(C)c1csc(NC(=O)CS(=O)(=O)c2ccc(Cl)cc2)n1
  0.96, ·
74. CC1CCN(C(=O)Cn2cc(S(=O)(=O)N3CCCC3)c(S(=O)(=O)N3CCCC3)c2)CC1
  -2.1, ·
75. COc1ccc(CSc2nc3ccncc3n2Cc2ccccc2F)cc1
  -0.82, -1.6
76. COc1ccc(OC)c(C2=NOC(C(=O)N3C(C)CCCC3C)C2)c1 (stereo not drawn)
  1.4, -1.1
77. CCn1c(N(C)C)nc2c1c(=O)n(C)c(=O)n2C
  ·, -0.51
78. O=S(=O)(NCC1CCCO1)c1ccc2oc3ccc(S(=O)(=O)NCC4CCCO4)cc3c2c1 (stereo not drawn)
  ·, -1.1
79. CCN(CC)S(=O)(=O)c1ccc2c(c1)CC(C(=O)N1CCc3ccccc3C1)N2C(C)=O (stereo not drawn)
  1.4, ·
80. O=C(NCCCO)c1c(O)nc2ccccn2c1=O
  1.1, -1.6
81. O=C(CSc1nc2ccccc2c(=O)[nH]1)Nc1cccc(Cl)c1
  1.8, ·
82. O=C(Cc1cccs1)N(Cc1ccco1)C1(C(=O)NC2CCCC2)CCCCC1
  ·, 0.93
83. CCCCCOC(=O)C1=C(C)NC2=C(C(=O)CC(C)(C)C2)C1c1ccc2c(c1)OCO2 (stereo not drawn)
  2.5, -1.1
84. CC1(C)CC(O[Si](C)(C)OC2CC(C)(C)NC(C)(C)C2)CC(C)(C)N1
  ·, -1.5
85. CCCNc1nc2c(-c3cccc(F)c3)nnn2c2ccc(Cl)cc12
  1.5, -1.7
86. Cc1nc(-c2cccc(F)c2)sc1CCNS(=O)(=O)c1cc(F)ccc1F
  0.45, ·
87. O/N=C(\c1ccccc1)C1CC2CCC1CC2 (stereo not drawn)
  ·, -2.4
88. Cc1nn2c3c(cnc2c1-c1ccc(Cl)cc1)C(=O)CCC3
  -0.94, -1.3
89. O=C(Cn1cnc(S(=O)(=O)N2CCCC2)c1)N(Cc1ccco1)C1CCCCC1
  0.61, ·
90. O=C(CCCCCN1C(=O)c2cccc3cccc(c23)C1=O)N1CCOCC1
  ·, -1.2
91. OC(CSc1nc2cccnc2s1)C(F)(F)F (stereo not drawn)
  ·, -2.3
92. Cc1cc(C)c2c(n1)sc1c(=O)n(N)c(C)nc12
  ·, -0.64
93. Cc1cc2n(n1)CCCN2C(=O)NCCC(C)C
  -0.18, ·
94. CCOC(=O)CSC1=NS(=O)(=O)c2ccccc2N1
  0.93, ·
95. CNc1ccccc1C(=O)N1CCc2c([nH]c3ccccc23)C1=O
  1.6, ·
96. COc1ccc(Cc2nc(-c3ccccc3)n[nH]c2=O)cc1
  0.41, ·
97. CCOc1ccccc1Nc1ccnc2cc(Cl)ccc12
  ·, -0.08
98. Cc1c(Br)c([N+](=O)[O-])nn1CC(=O)NCCCn1ccnc1
  -0.09, -0.5
99. O=C(CSCCOc1ccccc1)N1CCOCC1
  ·, -0.24
100. CCOC(=O)N1CCN(c2nc(-c3ccccc3F)nc3ccccc23)CC1
  1, ·
101. CCOC(=O)c1c(C)[nH]c(C)c1S(=O)(=O)N1CCC(C(=O)N(C)Cc2ccco2)CC1
  0.93, ·
102. CCc1cc2c3c([nH]c2cc1S(=O)(=O)Nc1cc(OC)ccc1OC)CC(C)(C)CC3=O
  0.83, ·
103. CCOc1ccc(N(CC(=O)Nc2cc(C)[nH]n2)C2=NC3CS(=O)(=O)CC3S2)cc1 (stereo not drawn)
  0.64, -0.36
104. CCCCC1=NN(C(=O)COc2ccccc2)C(O)(C(F)(F)F)C1 (stereo not drawn)
  ·, -3.2
105. O=C(CCc1nc(-c2cccs2)no1)N1CCOCC1
  2.4, -2.3

Along the list, from the results shown.
Nos. 97–103 in HIV TAR-Tat, in turn: ·, -0.09, ·, 1, 0.93, 0.83, 0.64
Nos. 97–103 in CDC25B-CDK2 inh, in turn: -0.08, -0.5, -0.24, ·, ·, ·, -0.36

Ordered by heavy-atom count (smallest number first): five of the compounds above
Values run as follows: HIV TAR-Tat, CDC25B-CDK2 inh
97. CCOc1ccccc1Nc1ccnc2cc(Cl)ccc12
  ·, -0.08
95. CNc1ccccc1C(=O)N1CCc2c([nH]c3ccccc23)C1=O
  1.6, ·
103. CCOc1ccc(N(CC(=O)Nc2cc(C)[nH]n2)C2=NC3CS(=O)(=O)CC3S2)cc1 (stereo not drawn)
  0.64, -0.36
101. CCOC(=O)c1c(C)[nH]c(C)c1S(=O)(=O)N1CCC(C(=O)N(C)Cc2ccco2)CC1
  0.93, ·
102. CCc1cc2c3c([nH]c2cc1S(=O)(=O)Nc1cc(OC)ccc1OC)CC(C)(C)CC3=O
  0.83, ·

Single values from the entries so far.
compound 96 | HIV TAR-Tat: 0.41
compound 97 | CDC25B-CDK2 inh: -0.08
compound 105 | HIV TAR-Tat: 2.4
compound 103 | CDC25B-CDK2 inh: -0.36

Carrying on.
Values run as follows: HIV TAR-Tat, CDC25B-CDK2 inh
106. Cc1n[nH]c(C)c1CCCCCOc1ccccc1F
  0.62, 1.6
107. CC(C)OC(=O)CN1C(=O)c2ccc(C(=O)OC(C)C)cc2C1=O
  ·, 0.9
108. CCn1nc(C)c(CCNC(=O)Nc2cc(Cl)c(OC)cc2OC)c1C
  -0.24, ·
109. CN(C)C(=S)SCC(=O)c1ccc(Cl)cc1
  ·, -1.1
